Source: PubChem BioAssay (National Center for Advancing Translational Sciences (NCATS))
AmpC inh no det: AmpC beta-lactamase inhibition, detergent-free assay. P00811. AmpC nitrocefin hydrolysis, absorbance 480 nm, no detergent; potencies from a single point are estimates. Potency, µM (doses to about 28.7 µM), for inactives: top-dose activity change, negative = inhibition. AID 585. hit rate 1.8% among 71,000; active = falling curve, for most hits resting on a single point; inconclusive = weak or doubtful change; inactive = flat or rising curve; further: % of control where 0% means no effect; about half of the hits show no inhibition at the top dose; a quarter of the inactives give rising signals
Target sequence (P00811 whole entry, looked up): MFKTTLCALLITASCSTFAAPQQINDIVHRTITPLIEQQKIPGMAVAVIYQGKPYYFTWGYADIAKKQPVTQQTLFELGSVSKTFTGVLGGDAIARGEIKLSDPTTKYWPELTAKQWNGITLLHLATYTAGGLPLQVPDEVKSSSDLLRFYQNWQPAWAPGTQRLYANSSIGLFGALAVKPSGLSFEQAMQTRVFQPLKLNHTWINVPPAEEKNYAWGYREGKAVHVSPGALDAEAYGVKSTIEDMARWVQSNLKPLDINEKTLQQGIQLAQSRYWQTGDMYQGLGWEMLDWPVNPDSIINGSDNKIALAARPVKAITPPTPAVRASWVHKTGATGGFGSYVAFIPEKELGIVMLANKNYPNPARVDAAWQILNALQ
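AmpC, 20 mM phosphate pH 7.0; 15 min cpd preinc, RT; start with nitrocefin (800 uM stock); A480 kinetic read, 20 s intervals, 4 min. No-enzyme wells = negative control.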
* marks the source's active call; other numbers are inactive results; ? = inconclusive; & = joins results of further samples; [ ] = another dose, or the depositor's remark. Potency means the concentration at half of the fitted maximal effect. Not all compounds are listed; the hit share may differ from the screen's.

| molecule | AmpC inh no det |
| --- | --- |
| CC(NC(=O)c1ccc2c(c1)OCO2)C(c1cccs1)N1CCOCC1 (stereo not drawn) | 3.7% |
| O=C1CC(c2ccccc2)CC(O)=C1C=NCc1ccco1 (stereo not drawn) | 8.3% |
| O=c1c2[nH]c3ccc(F)cc3c2ncn1CCN1CCOCC1 | -5.8% |
| Nc1nc2n(n1)C(c1cccc(Cl)c1)CC(c1ccc(F)cc1)N2 (stereo not drawn) | 56.0% |
| COc1ccc2ccccc2c1C1CC(=O)N2CN(C)CSC2=C1C#N (stereo not drawn) | 25.5% |
| COc1ccc(-c2cc(C(=O)O)c3ccccc3n2)c(OC)c1 | -4.9% |
| Cc1ccc(F)cc1NC(=O)c1ccc2c(c1)OCO2 | 4.6% |
| COC(=O)C1=C(C)N(C)C(C)=C(C(=O)OC)C1c1cccc(Br)c1 | 66.3% |
| CCOC(=O)C1CCCN(Cc2nc(N)nc(Nc3ccccc3)n2)C1 (stereo not drawn) | 10.1% |
| COC(=O)c1ccccc1NC(=O)Cn1cc2c(n1)CCC(C)C2 (stereo not drawn) | 34.4% |
| COc1cccc(C2CC(c3ccc(Cl)cc3Cl)Nc3nc(N)nn32)c1 (stereo not drawn) | 125.6% |
| O=C(CC1Sc2ccccc2NC1=O)OCC(=O)N1CCc2ccccc21 (stereo not drawn) | -18.9% |
| Cc1[nH]c2ccccc2c1/C=N/O | -5.9% |
| COc1ccc(NC(=O)c2cc(S(=O)(=O)N3CCCCC3)ccc2N2CCCCC2)cn1 | 51.6% |
| CCC(c1nnnn1Cc1cccs1)N1CCN(C2CCCC2)CC1 (stereo not drawn) | 1.2% |
| COc1ccc(CN2C(=O)CCC2(C)C(=O)NC2CCCCCC2)cc1 (stereo not drawn) | 36.1% |
| Cc1noc(C)c1C(=O)N1CCC2(CC1)OCCO2 | -2.0% |
| COc1ccccc1COCC(O)CNCC1(N2CCCCC2)CCCCC1 (stereo not drawn) | -1.1% |
| Cc1cc2c(nn1)CCC/C2=N\O | 8.6% |
| O=c1c(-c2ccc(Cl)cc2)nc2cnc(N3CCNCC3)nc2n1-c1ccccc1 | 81.3% |
| CN(C1CCS(=O)(=O)C1)S(=O)C12CC3CC(CC(C3)C1)C2 (stereo not drawn) | -0.9% |
| COCCCNC(=O)CCSc1ccc(Cl)cc1 | 23.6% |
| Cc1ccc(S(=O)(=O)N2C(=O)CCC2C(=O)Nc2ccc3c(c2)OCCO3)cc1 (stereo not drawn) | 7.6% |
| CCCCn1cnc2c1c(=O)n(CC(=O)c1cc(C)n(C)c1C)c(=O)n2CC(C)C | 130.7% |
| CCOC(=O)c1c(N)sc(C(=O)N2CCCCCC2)c1C | 10.1% |

New compounds follow.
| molecule | AmpC inh no det |
| --- | --- |
| O=C(c1cccc(F)c1)N1CCC2(CCCN(Cc3ccccc3)C2)CC1 | 13.9% |
| CN1CCN(c2nc3cc(C(F)(F)F)ccc3n3cccc23)CC1 | 99.8%&40.1% |
| COC(=O)c1[nH]c2ccc(C)cc2c1NC(=O)CN1CCN(Cc2ccccc2)CC1 | 115.1% |
| Cn1c(=O)[nH]c(=O)c2c1nc(N1CCc3ccccc3C1)n2CCSc1nc2ccccc2s1 | 64.2% |
| CCCOc1nc2c(c(=O)n(C)c(=O)n2C)n1CC | 12.3% |
| OCCOCCOCCn1c2ccccc2c2ccccc21 | 106.1% |
| CCOC(=O)c1[nH]nc(N)c1NC(=O)c1ccc(Cl)cc1Cl | 3.7% |
| O=C(COC(=O)c1cc(S(=O)(=O)N2CCCCC2)ccc1N1CCOCC1)NC1CCCCC1 | 109.8% |
| O=C(NCCc1ccccc1)C(c1cccs1)N(C(=O)c1csnn1)C1CC1 (stereo not drawn) | 15.7% |
| COC(=O)CC[C@@H](C)[C@@H]1CC[C@@H]2[C@@H]3CC[C@H]4C[C@@H](O)CC[C@@]4(C)[C@@H]3CC[C@]21C | 2.3%[5.75 µM] |
| CSc1nc2c(c(=O)n1-c1ccc(F)cc1)SCC2 | -0.6% |
| CC(=O)N(C(C)=O)c1ncc2c([nH]c3ccccc32)c1C#N | -13.0% |
| CCC1Oc2ccccc2N(CC(=O)NCCCN2CCCCC2CC)C1=O (stereo not drawn) | 18.3% |
| Cc1ccccc1-c1nnc(-c2ccccc2)o1 | 20.7% |
| Cc1ccc(NC(=O)COC(=O)c2ccc3c(c2)NC(=O)C2CCCN32)cc1C (stereo not drawn) | 26.9% |
| CC1CCN(S(=O)(=O)c2cccc(C(=O)N(C)C3CCS(=O)(=O)C3)c2)CC1 (stereo not drawn) | 14.2% |
| Cc1[nH]c2ccc(C(=O)OCCN(C)C)cc2c1C | 15.0% |
| N=c1sccn1CC(=O)NCCc1ccc(Cl)cc1 | -0.8% |
| Nc1ccc(C(=O)NCC(=O)O)cc1 | 5.1%[12.8 µM] |
| COc1ccc(C2C(C#N)=C(N)Oc3cc(C)n(Cc4ccncc4)c(=O)c32)cc1 (stereo not drawn) | 3.7% |
| COC(=O)c1cc(NC2c3ncccc3C(=O)N2Cc2ccccc2)cc(C(=O)OC)c1 (stereo not drawn) | 93.8% |
| CCC(=O)c1cc2c(cc1NC(=O)c1ccc(C)cc1)OCCO2 | 21.3% |
| Nc1nonc1-c1nc2ccccc2n1Cc1ccc(F)cc1Cl | -9.4% |
| Cc1noc(NS(=O)(=O)c2ccc(NC(=O)CCC3CCCC3)cc2)c1C | -18.7% |
| CCCCP(=O)(CCCC)c1ccccc1C(=O)O | -1.3% |

Entries from the list above that contain a Cl atom:
| molecule | AmpC inh no det |
| --- | --- |
| Nc1nc2n(n1)C(c1cccc(Cl)c1)CC(c1ccc(F)cc1)N2 (stereo not drawn) | 56.0% |
| COc1cccc(C2CC(c3ccc(Cl)cc3Cl)Nc3nc(N)nn32)c1 (stereo not drawn) | 125.6% |
| O=c1c(-c2ccc(Cl)cc2)nc2cnc(N3CCNCC3)nc2n1-c1ccccc1 | 81.3% |
| COCCCNC(=O)CCSc1ccc(Cl)cc1 | 23.6% |
| CCOC(=O)c1[nH]nc(N)c1NC(=O)c1ccc(Cl)cc1Cl | 3.7% |
| N=c1sccn1CC(=O)NCCc1ccc(Cl)cc1 | -0.8% |
| Nc1nonc1-c1nc2ccccc2n1Cc1ccc(F)cc1Cl | -9.4% |

The listing continues:
| molecule | AmpC inh no det |
| --- | --- |
| O=c1c(-c2cccs2)nc2cnc(N3CCNCC3)nc2n1-c1ccccc1 | 65.6% |
| O=C(Cn1nnc(-c2ccc(Cl)cc2)n1)NCCC1=CCCCC1 | -23.0% |
| Cn1c(=O)c2c(nc(CN3CCOCC3)n2CC(O)CO)n(C)c1=O (stereo not drawn) | -4.8% |
| CCOC(=O)CN(C(=O)CSc1nnc2c(n1)[nH]c1ccc(OC)cc12)c1ccc(F)cc1 | 124.8% |
| COc1ccc(S(=O)(=O)NC(C(C)C)C(C)C)cc1OC | 8.2% |
| CS(=O)(=O)c1ccc2nc(NC(=O)CC3CCCC3)sc2c1 | -5.1% |
| CC1=C(C)C(=O)N(CCC(=O)O)C1=O | -4.6% |
| CCOC(=O)c1cc2c(=O)n3cccc(C)c3nc2n(CCOC)c1=NC(=O)c1ccncc1 | 12.2% |
| O=C(Cn1cccc1)NCc1cccs1 | -0.1% |
| Cc1nnc(SCCn2c(N3CCN(C)CC3)nc3c2c(=O)[nH]c(=O)n3C)s1 | -7.7% |
| Cc1ccc(NCC(O)C(O)C(O)CO)cc1C (stereo not drawn) | 1.6% |
| c1ccc(-c2cc3c(N4CCOCC4)ncnc3s2)cc1 | 117.8% |
| CCOC(=O)CSc1nc(C)cc(Oc2ccc(=O)n(C)n2)n1 | 9.3% |
| CCCC(C)C(=O)NCc1ccccc1OC (stereo not drawn) | -6.1% |
| Nc1nc2ccccc2n1/N=C/c1ccc(-c2ccccc2)o1 | 38.7% |
| O=C(Nc1ccc(Oc2ccccc2)cc1)C1CCN(c2ncccn2)CC1 | -19.6% |
| CC(=O)NCCc1cc2ccc(C)c(C)c2[nH]c1=O | -1.4% |
| CCSC1=N/C(=C\c2ccc3c(c2)OCO3)C(=O)S1 | -8.7% |
| CN1CCN(c2ncc3nc(CCc4ccccc4)c(=O)n(C4CC4)c3n2)CC1 | 126.0% |
| Cc1[nH]c2ccccc2c1C1=CCNCC1 | -11.0% |
| CCN(CC)CCN(Cc1cc2cc3c(cc2[nH]c1=O)OCCO3)C(=O)NC1CCCCC1 | 28.5% |
| Cn1nnnc1Sc1ncnc2scc(-c3ccc(F)cc3)c12 | -12.3% |
| O=C(CN1C(=O)NC(Cc2ccccc2)C1=O)Nc1ccc(F)cc1 (stereo not drawn) | -0.1% |
| COc1cc2[nH]c(=S)n(CCN3CCOCC3)c(=O)c2cc1OC | -11.4% |
| COc1ccccc1-c1coc2c(CN3CCN(C)CC3)c(O)ccc2c1=O | -14.9% |

In the list so far, two contain a furan ring, fused or not.
| molecule | AmpC inh no det |
| --- | --- |
| O=C1CC(c2ccccc2)CC(O)=C1C=NCc1ccco1 (stereo not drawn) | 8.3% |
| Nc1nc2ccccc2n1/N=C/c1ccc(-c2ccccc2)o1 | 38.7% |

(continued)
| molecule | AmpC inh no det |
| --- | --- |
| COc1ccc(C2C(C(=O)NCc3ccccn3)c3cc(OC)c(OC)cc3C(=O)N2C)cc1 (stereo not drawn) | 67.1% |
| CCc1c(C)nc2ncnn2c1N1CCC(C(=O)NCc2cccc(OC)c2)CC1 | 37.5% |
| CC(=O)c1c(C)n(CC2CCCO2)c2ccc(O)cc12 (stereo not drawn) | -2.2% |
| O=C(Nc1cnc2sccn2c1=O)c1ccccc1Cl | 6.4% |
| Cc1ccc(S(=O)(=O)NCC2CCC(C(=O)N3CCC4(CC3)OCCO4)CC2)cc1 (stereo not drawn) | 69.0% |
| O=S(=O)(CCc1nc2ccccc2o1)c1ccc(Cl)cc1 | 0.7% |
| O=C(c1ccccc1)N1CCCCC(Sc2nnc3ccccn23)C1=O (stereo not drawn) | -6.9% |
| CCOc1ccccc1N1CCN(Cc2cccc(OC)c2O)CC1 | 22.1% |
| CCN(CC)c1ccc(NC(=O)c2ccco2)c(C)c1 | 5.2% |
| Cc1ccc(-c2cc(C(=O)Nc3c(C#N)cnn3C)no2)cc1 | -13.6% |
| CCc1nc2c(n1O)CCc1nonc1-2 | 7.7% |
| CCC(c1nnnn1Cc1ccco1)N1CCN(C(=O)c2ccco2)CC1 (stereo not drawn) | 10.8% |
| COc1ccccc1N(CN1CCCC1=O)C(=O)c1c(F)cccc1Cl | 17.7% |
| Cc1ccc(-c2nn(C)c(=O)c3ccccc23)cc1CNC(=O)CN1CCOCC1 | 42.8% |
| CCOC(=O)Cn1c2c(c(=N)c3ccccc31)CCC2 | -8.9% |
| CN(C)c1nc(Nc2ccc(Cl)cc2)nc(OCC#N)n1 | 64.5% |
| CCC(=O)Nc1ccc(Oc2ccc3c(c2)C(=O)NC3=O)cc1 | -9.0% |
| CC(C)CC(OC(=O)c1ccco1)C(=O)NC1CCCCC1 (stereo not drawn) | 9.2% |
| O=C1CC(c2ccco2)Cc2nc(Nc3nc(-c4ccccc4)c4ccccc4n3)ncc21 (stereo not drawn) | 34.0% |
| COC(=O)c1cc(NC(=O)C2CC=CCC2C(=O)O)cc(C(=O)OC)c1 (stereo not drawn) | 3.1% |
| c1ccc2c(c1)[nH]c1c(N3CCOCC3)ncnc12 | ? |
| COC(=O)c1ccc(C(NC(=O)OCc2ccccc2)/C(F)=C/[C@@H](C)C(=O)NCc2cc(F)cc(F)c2)cc1 (stereo partly drawn) | 0.8% |
| Cn1nnnc1SCC(=O)NCCc1ccc(Cl)cc1 | 18.7% |
| COc1ccc(C2N=C(Nc3ccc(C)cc3)Nc3nc(C)cc(=O)n32)cc1 (stereo not drawn) | 27.3% |
| COc1cc(OC)cc(-c2nc3cc(C)ccc3o2)c1 | 52.1% |

Additional compounds:
| molecule | AmpC inh no det |
| --- | --- |
| Cc1nc2ccccc2c2nc3ccccc3n12 | -12.2% |
| COC(=O)C1CCN(C(=O)c2sc3nc(-c4ccccc4)cn3c2C)CC1 | 89.1% |
| O=C(Nc1ccc(F)cc1)N1CCN(C/C=C/c2ccccc2)CC1 | 51.4% |
| Nc1ccc2c(c1)CCC2=O | -5.1% |
| Cc1cnc(NC(=O)C2CCCO2)s1 (stereo not drawn) | 33.8% |
| CN(C)CN1CSC(=S)N(CN(C)C)C1 | -12.8%[5.75 µM] |
| Cc1cccc(C(=O)O)c1NC(=O)c1ccc(F)cc1 | -11.8% |
| CN(C)c1cccc(C(=O)OCC(=O)NCc2ccco2)c1 | 5.9% |
| CN1CCC(OC(=O)COc2ccc(C(C)(C)C)cc2)CC1 | 11.9% |
| COC(=O)c1ccc(CNC(=O)CSc2nc3sc(C)c(C)c3c(=O)n2C)o1 | 24.1% |
| CCc1ccccc1NC1=NCC(=O)N1Cc1ccccc1 | 10.8% |
| COc1ccccc1N1CCN(C(=O)C2CCN(S(=O)(=O)c3ccccc3)CC2)CC1 | 120.2% |
| O=C(COC(=O)c1cccs1)NCCN1C(=O)CSC1=O | -3.5% |
| N#Cc1c2n(c3c(=O)n(Cc4ccc(Cl)cc4)cnc13)CCCCC2 | 31.3% |
| CC(C)C[C@@H](CC(=O)N[C@@H](CCC(=O)O)CC(=O)O)NC(=O)[C@@H]1CCCC[C@H]1NC(=O)C[C@@H](NC(=O)C[C@H](Cc1ccccc1)NC(=O)[C@@H]1CCCC[C@H]1N)C(C)C | 125.2% |
| Cc1ccc2[nH]c(=O)c(CNC(C)(C)C)cc2c1 | -9.8% |
| CCOC(=O)C1=C(N)N2C(=O)C(C)SC2=C(C(=O)OCC)C1c1ccccc1 (stereo not drawn) | 3.9% |
| CS(=O)(=O)N1CCN(c2ccccc2NC(=O)CSc2ccc(Cl)cc2)CC1 | 14.6% |
| O=C(c1ccc(Br)o1)N1CCN(Cc2ccc3c(c2)OCO3)CC1 | 30.9% |
| Cc1ccc(S(=O)(=O)N2CCN(C(=O)C3COc4ccccc4O3)CC2)cc1C (stereo not drawn) | 37.6% |
| O=C(OCCNc1ncc(C(F)(F)F)cc1Cl)c1ccc(S(=O)(=O)N2CCOCC2)cc1 | 76.5% |
| C[C@H](N)[C@@H](O)c1ccccc1 | -9.7%[12.8 µM] |
